High-throughput results (PubChem)
Beta cell apopt – inhibitors of cytokine-induced beta cell apoptosis, primary screen, luminescence | INS-1E cytokine-induced death, ATP luminescence, 48 h; percent of positive-control rescue, neutral wells zero | protection from apoptosis, % (concentration not given with the values) | 300,000 tested, 0.8% active;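 active = all replicates at 75% or more, or half of them and the mean; inconclusive = half reach 75% but not the mean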;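 note: 0% = cytokine-treated negative control wells and 100% = positive control rescue; higher means more ATP so stronger rescue from cytokine killing; wells of about 40 µL received 100 nL stock; the first replicate is given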
Calb FLC – C. albicans growth inhibition with fluconazole, primary screen, CaCi-2 strain, Alamar Blue fluorescence; C. albicans CaCi-2 (fluconazole-resistant clinical isolate) + fluconazole, 48 h; growth inhibition, % (no concentration beside the values); 300,000 tested, 0.57% active;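 active = most replicates above 75%; inconclusive = exactly half above 75%; inactive = most below 75%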;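 note: all wells also contain fluconazole at 8 µg/ml as a sub-toxic cotreatment; 0% = median of DMSO wells and 100% = median of geldanamycin control wells; wells of about 8 µL received 7.5 nL stock; the first replicate is given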
LANA-H2A inh – blockers of LANA interaction with H2A/H2B – biochemical, FP readout, HTS, primary screen; inhibition, % (test concentration not listed); 320,000 tested, 0.6% active; cell-free LANA-H2A/H2B peptide, fluorescence polarization; Protein LANA1 (Human herpesvirus 8 type P (isolate GK18)), Q9QR71; in the data active = inhibition mostly above about 10%, no sharp cut-off; inactive = mostly below about 6.7%;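 note: stock transfer was 7.5 nL into about 10 µL; 0% = median of vehicle wells and 100% = median of positive control wells; one replicate is shown; the record names a cut of 25% in any replicate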
T cruzi repl – inhibitors of intracellular T. cruzi growth, primary screen, luminescence, NIH3T3 host cells | inhibition, % (concentration not given with the values) | 300,000 tested, 1.4% active | AID 1885, 2009 | T. cruzi beta-gal in NIH3T3, 90 h;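 active = mean inhibition across valid replicates above about 55%, limit read from the data; inconclusive = mean below that limit but half or more replicates reach it; inactive = mean below it, under half of replicates reach it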;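 note: signal also drops with host cell toxicity which is not excluded here; 0% = plate median of DMSO wells and 100% = zero luminescence signal; higher percent means less beta-gal luminescence so fewer parasites; stock transfer was 50 nL into about 50 µL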
Bfl-1 A1 inh – caspase 3/7 activation in MEF A1-2A-BIM cells, primary screen, A1 inhibitor project, cell-based, luminescence, HTS | Caspase-Glo 3/7 luminescence, 3 h; percent of clofoctol response, vehicle zero | caspase activation, % (test concentration not listed) | 330,000 tested, 0.066% active | AID 2462, 2010;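 active = over half of replicate activation scores above 10%, or exactly half above 10 with the replicate mean above 10; inconclusive = replicate mean below 10 yet half the replicates above 10; inactive = over half of replicates below 10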;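 note: wells of about 30 µL received 50 nL stock; many hits fall short of the cut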
Beta2AR agonist – beta2AR agonists driving receptor internalization, primary screen, cell-based, FAP fluorogen, flow cytometry | 340,000 tested, 0.43% active | Am2.2-beta2AR cells; reference of the scale not given here | response, % (concentration not given with the values) | AID 504454, 2011;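 active = response above a set limit, near 3 SD of response in nonfluorescent compounds, cut at about 42% in these data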;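 note: stock transfer was 100 nL into about 11 µL; a reference agonist was the positive control; negative values mostly stem from fluorescent compounds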
Target sequence (P07550 whole entry, looked up): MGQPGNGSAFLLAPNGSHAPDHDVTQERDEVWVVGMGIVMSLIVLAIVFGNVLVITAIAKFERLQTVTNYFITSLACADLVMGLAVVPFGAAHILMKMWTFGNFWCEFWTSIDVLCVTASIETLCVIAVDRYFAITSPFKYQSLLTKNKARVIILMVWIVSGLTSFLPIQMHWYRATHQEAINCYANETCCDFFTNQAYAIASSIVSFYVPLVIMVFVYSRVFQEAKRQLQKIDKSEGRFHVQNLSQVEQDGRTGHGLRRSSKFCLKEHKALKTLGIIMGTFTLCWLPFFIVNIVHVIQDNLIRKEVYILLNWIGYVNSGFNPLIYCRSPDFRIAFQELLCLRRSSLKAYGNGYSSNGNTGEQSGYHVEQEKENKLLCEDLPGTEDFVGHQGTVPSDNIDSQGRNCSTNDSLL
RanGTP-Impb inh – inhibitors of RanGTP-importin-beta interaction, primary screen, biochemical, FRET, CFP-Ran, YFP-importin-beta, homogeneous | 300,000 tested, 1.1% active | inhibition, % (test concentration not listed) | cell-free CFP-Ran/YFP-importin-beta FRET ratio;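 active = most replicates above 15%; inconclusive = exactly half above 15%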;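 note: 0% = DMSO wells and 100% = Ran loaded with GDP instead of GTP; wells of about 40 µL received 100 nL stock; the first replicate is given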
UCH37 DUB inh – inhibitors of human UCH37 deubiquitinase, primary screen, biochemical, Ub-AMC cleavage, fluorescence; purified proteasome/UCH37; inhibition, % (test concentration not listed); 330,000 tested, 0.33% active;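 active = mean of two replicates above 20%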;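 note: 0% = compound-free wells with enzyme and 100% = wells lacking proteasome; stock transfer was 100 nL into about 20 µL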
Target sequence (Q9Y5K5 whole entry, looked up): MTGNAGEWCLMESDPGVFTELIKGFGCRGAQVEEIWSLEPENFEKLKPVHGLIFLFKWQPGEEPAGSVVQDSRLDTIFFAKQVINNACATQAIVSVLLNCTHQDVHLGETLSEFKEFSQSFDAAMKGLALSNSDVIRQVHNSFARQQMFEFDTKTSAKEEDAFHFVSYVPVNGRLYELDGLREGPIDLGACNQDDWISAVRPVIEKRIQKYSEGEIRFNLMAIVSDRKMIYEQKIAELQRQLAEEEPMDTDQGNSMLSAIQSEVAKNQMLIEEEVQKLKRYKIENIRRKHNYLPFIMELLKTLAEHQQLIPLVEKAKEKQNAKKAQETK
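system = Proteasome-associated human UCH37 deubiquitinase | amount = 0.15 nM proteasome as dispensed | medium = pH 7.4 Tris-HCl (50 mM) with ovalbumin, ATP-MgCl2, DTT | incubation = 30 min preincubation with enzyme, 25 min cleavage at room temperature | detection = AMC fluorescence 355/460 nm | read-out basis = percent inhibition | controls = no-proteasome and no-compound wells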
Starred values were filed as active, the others as inactive.

For O=C(COC(=O)c1ccncc1)c1ccccc1 the results were Beta cell apopt -6, Calb FLC -5, LANA-H2A inh -4.5, T cruzi repl -24, Bfl-1 A1 inh 0.3, Beta2AR agonist 0, RanGTP-Impb inh 3.8 and UCH37 DUB inh 2.6.
For O=C(C1=C[C@H](c2ccccc2)C[C@H](OCc2ccc(CO)cc2)O1)N1CCOCC1 the results were Beta cell apopt -2, Calb FLC -11, LANA-H2A inh -4.1, T cruzi repl -14, Bfl-1 A1 inh 0.3, Beta2AR agonist -5, RanGTP-Impb inh 0.0 and UCH37 DUB inh 2.3.
For COc1ccc(CCNC(=O)c2cccs2)cc1OC the results were Beta cell apopt -4, Calb FLC -9, LANA-H2A inh -6.5, T cruzi repl -2, Bfl-1 A1 inh 1.1, Beta2AR agonist 2, RanGTP-Impb inh 4.1 and UCH37 DUB inh 1.8.
`CC(C)c1c(O)nc(SCc2ccc(F)cc2)[nH]c1=O` gave Beta cell apopt 0, Calb FLC 11, LANA-H2A inh 2.3, T cruzi repl -5, Bfl-1 A1 inh -2.5, Beta2AR agonist 3, RanGTP-Impb inh -2.2 and UCH37 DUB inh 4.6.
`CC(=O)C1=C(C)NC2(O)c3ccccc3C(=O)C12O` (stereo unspecified) gave Beta cell apopt -2, Calb FLC inconclusive, LANA-H2A inh 2.6, T cruzi repl -32, Bfl-1 A1 inh 1.0, Beta2AR agonist 2, RanGTP-Impb inh 2.2 and UCH37 DUB inh 2.7.
For Cc1ccc(NC(=O)COC(=O)CNC(=O)c2ccc(Br)cc2)c(C)c1 the results were Beta cell apopt -2, Calb FLC -3, LANA-H2A inh 1.4, T cruzi repl 2, Bfl-1 A1 inh 1.2, Beta2AR agonist -7, RanGTP-Impb inh 1.7 and UCH37 DUB inh 1.5.
CCOC(=O)C1=C(c2ccccc2)Nc2ncnn2C1c1cccc(O)c1 (stereo unspecified) was read as Beta cell apopt -2, Calb FLC 11, LANA-H2A inh 3.1, T cruzi repl 3, Bfl-1 A1 inh -0.5, Beta2AR agonist -4, RanGTP-Impb inh 0.6 and UCH37 DUB inh 2.5.
Screening O=C(CN1CCN(C(=O)c2ccco2)CC1)NCc1ccc(Cl)cc1 returned Beta cell apopt 3, Calb FLC -6, LANA-H2A inh 2.6, T cruzi repl 2, Bfl-1 A1 inh 0.7, Beta2AR agonist -6, RanGTP-Impb inh 5.0 and UCH37 DUB inh 2.1.
CC(C)CC1Nc2ccc(C(=O)NCCCN3CCCCC3C)cc2NC1=O (stereo unspecified) was read as Beta cell apopt -2, Calb FLC -2, LANA-H2A inh 0.2, T cruzi repl 1, Bfl-1 A1 inh 0.4, Beta2AR agonist -1, RanGTP-Impb inh 2.2 and UCH37 DUB inh -10.
`Cc1ccc(S(=O)(=O)N/N=C/c2ccccc2O)cc1` gave Beta cell apopt -6, Calb FLC 13, LANA-H2A inh 1.3, T cruzi repl 1, Bfl-1 A1 inh 0.1, Beta2AR agonist 0 and RanGTP-Impb inh -4.0.
`CS(=O)(=O)c1ccc(NC(=O)c2ccc3c(c2)S(=O)(=O)N=C2CCCCCN23)cc1` gave Beta cell apopt 3, LANA-H2A inh 0.1, T cruzi repl -2, Bfl-1 A1 inh -0.3, Beta2AR agonist 3, RanGTP-Impb inh -3.5 and UCH37 DUB inh 4.8.
`Cc1cc(=O)[nH]c(SCC(=O)O)c1C#N` gave Beta cell apopt 2, Calb FLC 9, LANA-H2A inh 3.9, T cruzi repl 11, Bfl-1 A1 inh -0.1, Beta2AR agonist -5, RanGTP-Impb inh 8.5 and UCH37 DUB inh 0.5.
`CN(C)c1ccc(C(C(=O)NCc2ccccc2)N(Cc2ccco2)C(=O)c2snc(C(N)=O)c2N)cc1` (stereo unspecified) gave Beta cell apopt 4, Calb FLC -8, LANA-H2A inh -2.9, T cruzi repl 30, Bfl-1 A1 inh -0.3, Beta2AR agonist 15 and RanGTP-Impb inh -2.2.
CN(C)CCNC(=O)c1c(CSc2ccc(Cl)cc2)noc1C(=O)NCc1ccccc1 was read as Beta cell apopt 3, Calb FLC -5, LANA-H2A inh -2.6, T cruzi repl 4, Bfl-1 A1 inh -0.8, Beta2AR agonist 1, RanGTP-Impb inh -1.2 and UCH37 DUB inh 0.3.
For CCn1c(CNc2ccc(C)cc2)nnc1SCC(N)=O the results were Beta cell apopt -4, Calb FLC -5, LANA-H2A inh 2.7, T cruzi repl -1, Bfl-1 A1 inh 0.0, Beta2AR agonist 2, RanGTP-Impb inh -2.1 and UCH37 DUB inh 4.2.
Screening COC(=O)c1noc(-c2ccc(C)cc2)n1 returned Beta cell apopt -10, Calb FLC -8, LANA-H2A inh -1.9, T cruzi repl -15, Bfl-1 A1 inh -2.3, Beta2AR agonist 6, RanGTP-Impb inh 1.6 and UCH37 DUB inh 1.1.
Cc1cc(C(=O)Nc2cc(C)on2)on1 was read as Beta cell apopt -1, Calb FLC 1, LANA-H2A inh 2.3, T cruzi repl -14, Bfl-1 A1 inh -0.7, Beta2AR agonist 1, RanGTP-Impb inh 0.3 and UCH37 DUB inh -0.8.
Screening CC(C)n1c(NCCc2ccccc2)nc2c1c(=O)n(C)c(=O)n2C returned Calb FLC 1, LANA-H2A inh -4.9, T cruzi repl 3, Bfl-1 A1 inh -0.6, Beta2AR agonist 3, RanGTP-Impb inh -0.8 and UCH37 DUB inh 1.4.
Screening CCc1nc2ccccc2n1CC(=O)N1CCN(Cc2ccccc2)CC1 returned Calb FLC -4, LANA-H2A inh 7.0, T cruzi repl -11, Bfl-1 A1 inh -0.2, Beta2AR agonist 9, RanGTP-Impb inh 3.2 and UCH37 DUB inh 2.8.
Screening Cc1cccc(-c2nnc(-c3ccc(N)cc3)o2)c1 returned Beta cell apopt 1, Calb FLC -3, LANA-H2A inh 2.5, T cruzi repl 5, Bfl-1 A1 inh -7.7, Beta2AR agonist 1, RanGTP-Impb inh -1.3 and UCH37 DUB inh -129.
For N#Cc1c(/N=C/C=C/c2ccccc2)sc2c1CCCC2 the results were Beta cell apopt -7, Calb FLC 2, LANA-H2A inh 6.5, T cruzi repl 10, Bfl-1 A1 inh 0.0, Beta2AR agonist 20 and RanGTP-Impb inh 0.4.
For CCOc1ccc(S(=O)(=O)N2CCCC(C(=O)NCc3cccnc3)C2)cc1Cl (stereo unspecified) the results were Beta cell apopt -3, Calb FLC -6, LANA-H2A inh 0.4, T cruzi repl 15, Bfl-1 A1 inh -0.2, Beta2AR agonist -18, RanGTP-Impb inh inconclusive and UCH37 DUB inh 0.7.
CC(C)c1cc(NC(=O)c2ccccc2)cc(C(C)C)c1O was read as Beta cell apopt -11, Calb FLC -32, LANA-H2A inh -3.0, T cruzi repl 18, Bfl-1 A1 inh 0.5, Beta2AR agonist 0, RanGTP-Impb inh -1.1 and UCH37 DUB inh -1.4.
`COc1cc(/C=C/C(=O)O)cc(S(=O)(=O)Nc2ccccc2Cl)c1OC` gave Beta cell apopt -5, Calb FLC -2, LANA-H2A inh -2.2, T cruzi repl -6, Bfl-1 A1 inh 2.1, Beta2AR agonist 5, RanGTP-Impb inh inconclusive and UCH37 DUB inh 7.2.
Cc1ccc(NC(=S)NCc2ccccc2)cc1C was read as Beta cell apopt -6, Calb FLC -23, LANA-H2A inh 3.6, T cruzi repl 4, Bfl-1 A1 inh -0.6, Beta2AR agonist 1, RanGTP-Impb inh 2.5 and UCH37 DUB inh 3.4.
CC(=O)Nc1ccc(/C=N/NC(=O)c2cccc(S(=O)(=O)N3CCOCC3)c2)cc1 was read as Beta cell apopt -3, Calb FLC 25, LANA-H2A inh 5.5, T cruzi repl -6, Bfl-1 A1 inh 0.8, Beta2AR agonist -7 and RanGTP-Impb inh -0.8.
For O=C(COC(=O)CSc1ccc2ccccc2c1)NC1CC1 the results were Beta cell apopt -4, Calb FLC -13, LANA-H2A inh -2.2, T cruzi repl 6, Bfl-1 A1 inh -0.5, Beta2AR agonist -8, RanGTP-Impb inh 4.0 and UCH37 DUB inh 5.2.
CC(=O)Nc1ccc(OC(=O)c2cc3cc(Br)cc(Br)c3oc2=O)cc1 was read as Beta cell apopt -4, Calb FLC -8, LANA-H2A inh -1.4, T cruzi repl -4, Bfl-1 A1 inh -0.3, RanGTP-Impb inh inconclusive and UCH37 DUB inh 4.8.
For COc1ccc(C(=O)NCC(=O)OCc2cccc(Br)c2)cc1 the results were Calb FLC -4, LANA-H2A inh 1.9, T cruzi repl 2, Bfl-1 A1 inh 0.2, Beta2AR agonist 0, RanGTP-Impb inh -1.8 and UCH37 DUB inh 2.7.
For CNC(=O)C1(C(F)(F)F)C/C(=C\CCO)CCCO1 (stereo unspecified) the results were Beta cell apopt 0, Calb FLC -3, LANA-H2A inh -4.1, T cruzi repl 3, Bfl-1 A1 inh -0.1, Beta2AR agonist 1, RanGTP-Impb inh -8.6 and UCH37 DUB inh 2.4.
For COc1ccc(/C=C2\SC(=S)N(CCC(=O)Nc3cccc(O)c3)C2=O)cc1OC the results were Beta cell apopt 5, Calb FLC 4, LANA-H2A inh -0.4, T cruzi repl -15, Bfl-1 A1 inh 0.1, Beta2AR agonist -1, RanGTP-Impb inh -3.2 and UCH37 DUB inh 9.1.
For CC(C)N1CCN(C(=O)c2ccc([N+](=O)[O-])cc2)CC1 the results were Beta cell apopt 2, Calb FLC -9, LANA-H2A inh -0.8, T cruzi repl 1, Bfl-1 A1 inh -0.8, Beta2AR agonist -1, RanGTP-Impb inh -1.7 and UCH37 DUB inh 2.1.
CCCCc1ccc(Nc2ncnc3nc[nH]c23)cc1 was read as Beta cell apopt -4, Calb FLC 59, LANA-H2A inh 0.2, T cruzi repl 10, Bfl-1 A1 inh -5.5, Beta2AR agonist -4, RanGTP-Impb inh -2.0 and UCH37 DUB inh 6.7.
Screening CCNC(=O)Cc1ccc(S(=O)(=O)N2CCOCC2)s1 returned Beta cell apopt -1, LANA-H2A inh -5.5, Bfl-1 A1 inh -0.5, Beta2AR agonist 3 and UCH37 DUB inh 1.1.
`CCN(CC)C(=O)CSc1nc2nc(C)cc(C)c2c(=O)[nH]1` gave Beta cell apopt -2, Calb FLC 5, LANA-H2A inh 0.9, T cruzi repl -19, Bfl-1 A1 inh 0.6, Beta2AR agonist -4, RanGTP-Impb inh -2.2 and UCH37 DUB inh -18.
Screening O=C(NCCCn1ccnc1)C1CCN(S(=O)(=O)c2ccc(F)cc2)CC1 returned Beta cell apopt 1, Calb FLC -2, LANA-H2A inh -5.1, T cruzi repl -3, Bfl-1 A1 inh -0.6, Beta2AR agonist 7, RanGTP-Impb inh 2.6 and UCH37 DUB inh 1.6.
COc1cc(CNCC2CCCO2)ccc1OCC(N)=O (stereo unspecified) was read as Beta cell apopt -6, Calb FLC 39, LANA-H2A inh -1.8, T cruzi repl 1, Bfl-1 A1 inh 0.9, Beta2AR agonist 10, RanGTP-Impb inh -4.3 and UCH37 DUB inh -0.9.
